# Bioassay records from PubChem.
# PV pol inh = poliovirus RdRp elongation inhibitors, primary screen, biochemical, fluorescence polarization, total intensity | Genome polyprotein (Poliovirus type 1 (strain Mahoney)), P03300 | poliovirus polymerase elongation; active compounds read low | % elongation, % (compound at 16.7 µg/mL) | 150,000 compounds, 0.66% hits | AID 588519, 2011; in the data active means % elongation below about 90%; further: some results filed as inactive read as strong as hits
# Target sequence (P03300 1749-2209 limits assumed): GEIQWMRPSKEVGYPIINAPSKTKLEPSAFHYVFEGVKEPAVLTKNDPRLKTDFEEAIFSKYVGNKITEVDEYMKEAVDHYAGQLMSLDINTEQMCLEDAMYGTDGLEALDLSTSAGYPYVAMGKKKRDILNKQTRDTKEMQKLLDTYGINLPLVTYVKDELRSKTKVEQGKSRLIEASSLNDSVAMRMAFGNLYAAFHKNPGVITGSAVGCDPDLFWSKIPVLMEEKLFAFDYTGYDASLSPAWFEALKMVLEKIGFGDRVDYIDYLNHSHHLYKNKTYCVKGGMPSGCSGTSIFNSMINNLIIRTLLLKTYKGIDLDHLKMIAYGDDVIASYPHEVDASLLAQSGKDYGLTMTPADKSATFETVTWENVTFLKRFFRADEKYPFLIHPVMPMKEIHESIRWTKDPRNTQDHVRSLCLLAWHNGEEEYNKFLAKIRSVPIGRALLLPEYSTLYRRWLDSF
# PV pol inh intensity = further read-out of PV pol inh, marked with its call; % elongation; measured here: total intensity read-out; formula for this scale not given here;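 total fluorescence in place of polarization; lower means less elongation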
# Active calls of the source: *.
smiles,PV pol inh intensity,PV pol inh
CCn1c(C)c(C)c2cc(C(=O)NCCc3cc(OC)ccc3OC)ccc21,113.0,110.0
O=C(CSc1ccc(-c2cccs2)nn1)Nc1ccccc1,110.0,109.0
CC(C)c1ccc(C(=O)Nc2cc(-c3ccccc3F)nn2-c2ccccc2)cc1,111.0,100.0
Cc1c(Cl)cccc1Nc1nc2ccc(C(=O)c3ccccc3)cc2n2cnnc12,111.0,112.0
CCc1ccccc1N1CC(c2nc3ccccc3n2CCCCOc2ccccc2)CC1=O (stereo not given),68.0*,63.0*
Cc1c(CCNC(=O)c2ccc(C(C)(C)C)cc2)sc2nc(-c3ccc(F)cc3)nn12,108.0,107.0
Cc1ccc(C(C)(C)C)c(OCC(=O)Nc2ccc(Cl)cc2C(=O)c2ccccc2)c1,111.0,109.0
COC(=O)c1ccccc1NC(=O)CCc1c(C)nc2cc(-c3ccc(Cl)cc3)nn2c1C,108.0,106.0
O=C(O)CCc1ccc(-c2ccccc2)n1-c1ccc(C(=O)O)cc1,105.0,103.0
CCOc1ccc(NC(=O)c2cc(S(=O)(=O)N3CCOCC3)ccc2F)cc1,108.0,108.0
Cc1ccccc1Nc1c(-c2c[nH]c3ccccc23)nc2cccc(C)n12,126.0,126.0
COc1ccc(C)cc1S(=O)(=O)NCC(c1ccc(N(C)C)cc1)N1CCc2ccccc21 (stereo not given),106.0,102.0
Cc1ccccc1Nc1c2c(nc3nncn13)CCC2,108.0,111.0
CC1(C(=O)Nc2cccc(C(F)(F)F)c2)Cc2ccccc2C(=O)O1 (stereo not given),111.0,108.0
Cc1cc(C)c2nc(N(Cc3cccnc3)C(=O)c3cccs3)sc2c1,109.0,105.0
Cc1ccc(NC(=O)CSc2nnc(COc3ccc(Cl)cc3)o2)c(C)c1,110.0,109.0
O=C(Nc1cc(-c2nc3ccccc3o2)ccc1Cl)c1cccc2c(Cl)cccc12,109.0,106.0
CCOC(=O)Cn1c(-c2cccs2)cc2cc(Cl)ccc21,114.0,110.0
COc1ccccc1-c1cc(C(F)(F)F)nc(S(=O)(=O)CCCC(=O)Nc2ccccc2F)n1,88.0,91.0
CCOC(=O)C(Cc1c[nH]c2ccccc12)NC(=O)COc1ccc(Cl)c(C)c1 (stereo not given),93.0,100.0
CCOc1ccc(CCNC(=O)c2sc3nc4n(c(=O)c3c2C)CCCC4)cc1OCC,104.0,111.0
N#Cc1ccccc1NC(=O)C(=O)NCC(c1cccnc1)N1CCN(c2ccccc2)CC1 (stereo not given),114.0,113.0
Cc1ccsc1CN(C(=O)c1oc2cc(Br)ccc2c1C)C1CCS(=O)(=O)C1 (stereo not given),111.0,111.0
COc1ccc(-c2nc3c(c(SCc4ccc(Br)cc4)n2)Cc2c(CO)cnc(C)c2O3)cc1,115.0,110.0
O=S(=O)(NCc1ccccc1Cl)c1ccc(-c2cnc(C3CC3)o2)cc1,114.0,106.0
CC(C)c1ccc(CN(Cc2ccco2)c2cnc(S(C)(=O)=O)nc2C(=O)Nc2ccccc2)cc1,111.0,112.0
COc1cccc(NC(=O)CSc2nc3ccccc3n2C)c1,110.0,109.0
COc1ccc(-n2c(-c3ccc(Cl)cc3)cc3c2CC(C)(C)CC3=O)c(OC)c1,111.0,104.0
CCCCc1ccc(NC(=O)c2cc3c(=O)n4ccccc4nc3s2)cc1,110.0,109.0
CCN(CC)C(=O)c1ccc(Nc2nnc(-c3ccc(C)c(S(=O)(=O)NC)c3)c3ccccc23)cc1,104.0,102.0
CCOc1ccc(NC(=O)CSC2=Nc3ccccc3C3=NC(CCC(=O)NCc4cccs4)C(=O)N23)cc1 (stereo not given),111.0,111.0
CCCOc1ccc(CNC(=O)C2CCN(c3nn4c(=O)cc(C)nc4s3)CC2)cc1,107.0,112.0
COc1ccc(CCNC(=O)c2ccc(Cn3c(=O)c4ccccc4n(Cc4ccccc4Cl)c3=O)cc2)cc1OC,105.0,103.0
Cc1coc2c1c(C)cc1oc(=O)c(CC(=O)NCc3ccc(Cl)cc3)c(C)c12,104.0,104.0
O=C(Nc1ccccc1)N(Cc1ccc(F)cc1)c1ccccn1,109.0,111.0
COc1cccc(CNC(=O)c2ccc3c(c2)nc2n3CCCCC2)c1OC,112.0,107.0

# 3 records picked at random from the list so far:
smiles,PV pol inh intensity,PV pol inh
CCCCc1ccc(NC(=O)c2cc3c(=O)n4ccccc4nc3s2)cc1,110.0,109.0
COc1cccc(CNC(=O)c2ccc3c(c2)nc2n3CCCCC2)c1OC,112.0,107.0
Cc1coc2c1c(C)cc1oc(=O)c(CC(=O)NCc3ccc(Cl)cc3)c(C)c12,104.0,104.0

# Later entries.
smiles,PV pol inh intensity,PV pol inh
CN(C)C(=O)c1c(NC(=O)c2ccccc2F)sc2c1CCCC2,111.0,106.0
CCOc1ccccc1-n1nnc(-c2nc(-c3ccccc3C)no2)c1C,106.0,109.0
O=C(CSc1oc(-c2cccs2)nc1S(=O)(=O)c1ccccc1)Nc1ccc(F)cc1,114.0,108.0
COc1ccc(N2CCN(S(=O)(=O)c3csc(C(N)=O)c3)CC2)cc1,113.0,112.0
CCOc1ccc(CN2C(=O)c3ccccc3Sc3ccc(C(=O)NCCCN4CCOCC4)cc32)cc1,109.0,112.0
COc1ccc(CC(=O)Nc2ccc3nc(Nc4ccc(OC)cc4)cc(C)c3c2)cc1,110.0,110.0
CCOC(=O)C1CCN(c2csc3ccc(C)cc3c2=O)CC1,111.0,108.0
COc1ccc(NC(=O)Cn2c(=O)cc(C)c3c(C)nn(-c4cccc(Cl)c4C)c32)cc1OC,103.0,102.0
CC(C)Oc1ccc(CNC(=O)CCCN2C(=O)c3cccnc3Oc3ccc(Cl)cc32)cc1,110.0,107.0
COc1ccc(NC(=O)CSc2nc(-c3cccs3)cc(C(F)(F)F)n2)c(OC)c1,101.0,98.0
COc1ccc(OC)c(-c2noc(N3CCN(c4cc(C)ccc4C)CC3)n2)c1,103.0,100.0
NC(=O)c1c(NC(=O)c2cc(-c3ccc(F)cc3)on2)sc2c1CCCC2,80.0*,76.0*
CCOC(=O)c1ccc(Nc2nc3ccccc3n3c(C)nnc23)cc1,113.0,109.0
Cc1cccc(CNC(=O)CN2C(=O)CCn3nc(-c4cn(C)c5ccccc45)cc32)c1,100.0,106.0
CCC1(C)Cc2c(sc3nc(SC)n(-c4ccc(C)cc4)c(=O)c23)CO1 (stereo not given),105.0,103.0
O=C(O)CC1c2ccccc2CCN1C(=O)Nc1cc(Cl)ccc1Cl (stereo not given),102.0,105.0
COc1ccc(NC(=O)Cn2c(CCC(=O)O)ccc2-c2ccccc2)cc1Cl,108.0,109.0
Cc1ccc(S(=O)(=O)c2nnn3c2nc(NCc2ccccc2)c2sccc23)cc1,102.0,98.0
Cc1ccc2c(c1)N(C(=O)N1CCC(C(=O)NCc3cccs3)CC1)CC(C)O2 (stereo not given),98.0,103.0
COc1ccc(-c2cnnn2-c2ccc(NC(=O)c3ccc(S(=O)(=O)N(C)C)cc3)cc2)cc1,104.0,108.0
CCOc1ccc(S(=O)(=O)Nc2ccc(-c3ccc(N4CCCC4)nn3)cc2)cc1,107.0,104.0
Cc1cc(NS(=O)(=O)c2ccc(NC(=O)COc3c(C)ccc(C)c3C)cc2)nc(C)n1,107.0,106.0
Cc1ccn2c(=O)c(C(=O)Nc3ccc(F)c(C(F)(F)F)c3)cnc2c1,108.0,102.0
CCOc1cc(CNC(=O)c2cc(-c3ccc(Cl)s3)nc3ccccc23)ccc1OC,112.0,110.0
COc1ccc(-n2ccnc(NCc3cccs3)c2=O)cc1,106.0,102.0
CCOc1ccc(NC(=O)c2sc(-n3nc(C)c(CCC(C)C)c3C)nc2C)cc1,103.0,112.0
Cc1cc(C(=O)NCc2ccccc2)c2c(C)nn(-c3cccc(Cl)c3C)c2n1,107.0,112.0
CCOc1ccc(C2C(C(N)=O)=C(C)Nc3nc(-c4cccc(Cl)c4)nn32)cc1OC (stereo not given),107.0,102.0
Cn1cc(-c2cc3n(n2)CCC(=O)N3CC(=O)NCc2ccccc2)c2ccccc21,105.0,100.0
COc1cc(NC(=O)CCCN2C(=O)CCn3nc(-c4cn(C)c5ccccc45)cc32)cc(OC)c1,103.0,106.0
CCOC(=O)c1cccc(NC(=O)c2ccc3nc(Cc4ccccc4)oc3c2)c1,106.0,102.0
COc1ccccc1CNC(=O)CN1C(=O)CCn2nc(-c3ccccc3)cc21,113.0,107.0
COc1ccccc1N1CCN(CCCNC(=O)Cn2ncc3c([nH]c4ccccc43)c2=O)CC1,112.0,111.0
CC(=O)Nc1ccc2nc(SCCOc3ccccc3)sc2c1,113.0,110.0
CCc1ccc(NC(=O)c2ccc(F)c(S(=O)(=O)N3CCC4(CC3)OCCO4)c2)cc1,111.0,110.0
COc1ccc(/C=C/C(=O)Nc2ccc(Cl)c(Cl)c2)cc1OC,105.0,104.0
CCOC(=O)c1c(C)[nH]c(C)c1S(=O)(=O)NCC(=O)Nc1cc(C)ccc1OC,115.0,113.0
CC(=O)c1cccc(NC(=O)CCCSc2nc(-c3ccco3)cc(C(F)(F)F)n2)c1,99.0,105.0
CCc1ccc(Sc2cc(C(=O)NC(C)CC)c3ccccc3n2)cc1 (stereo not given),110.0,111.0
CCCCC(CC)CNC(=O)CCCCn1c(=O)[nH]c2ccsc2c1=O (stereo not given),113.0,111.0
CCCn1cc(S(=O)(=O)c2ccc(CC)cc2)c(=O)c2ccccc21,108.0,104.0
COc1ccccc1-c1nnc(C2CCN(C(=O)c3ccc(C)cc3)CC2)o1,108.0,107.0
Cc1ccc(CNS(=O)(=O)c2c(C)nc3scc(C)n3c2=O)cc1,100.0,99.0
CCC(=O)N1c2ccc(S(=O)(=O)CCC(=O)NCc3cccc(OC)c3)cc2CC1C (stereo not given),114.0,114.0
COc1cccc(-c2cc(C(=O)Nc3cnn(Cc4ccc(Cl)cc4Cl)c3)no2)c1,109.0,108.0
CCOc1ccc(NC(=O)NCCCN2CCN(c3ccc(F)cc3)CC2)cc1,108.0,107.0
CCCN(C(=O)c1cc2c(=O)n(CC)c3ccccc3c2s1)c1ccccc1F,99.0,104.0
Cn1nc(C(=O)NCc2ccc(F)cc2)c2c1-c1ccccc1SC2,112.0,113.0

# The last 4 entries of the part before come first, to join the parts.
smiles,PV pol inh intensity,PV pol inh
COc1cccc(-c2cc(C(=O)Nc3cnn(Cc4ccc(Cl)cc4Cl)c3)no2)c1,109.0,108.0
CCOc1ccc(NC(=O)NCCCN2CCN(c3ccc(F)cc3)CC2)cc1,108.0,107.0
CCCN(C(=O)c1cc2c(=O)n(CC)c3ccccc3c2s1)c1ccccc1F,99.0,104.0
Cn1nc(C(=O)NCc2ccc(F)cc2)c2c1-c1ccccc1SC2,112.0,113.0
CCN1CCN(Cc2c(O)ccc3oc(C)c(C(=O)Nc4cccc(Cl)c4C)c23)CC1,104.0,98.0
O=C(NC1CC(=O)N(c2ccc(F)cc2)C1)C1CCCC1 (stereo not given),107.0,104.0
CCCN(CCC)CCCNC(=O)c1sc2nc3n(c(=O)c2c1C)CCC3,108.0,98.0
Cc1cc(C)cc(NC(=O)N2CCC(CN3CCCCCC3)CC2)c1,106.0,109.0
Cc1nn(-c2ccccc2)c2sc(C(=O)Nc3cccc(Cl)c3)cc12,106.0,106.0
Cn1cc(S(=O)(=O)N2CCCCCC2)cc1C(=O)N1CCN(c2cccc(C(F)(F)F)c2)CC1,105.0,107.0
COc1cc(C(=O)Nc2cc3c(cc2C)n(C)c(=O)c(=O)n3C)cc(OC)c1OC,106.0,106.0
CCCNC(=O)Cn1nc(-c2ccc(C)c(C)c2)c2cnc3ccc(OC)cc3c21,106.0,101.0
COc1ccccc1N1CCN(c2ccc(=O)n(CC(=O)NCc3ccc(F)cc3)n2)CC1,98.0,103.0
COc1ccc(C(=O)N2CC(=O)Nc3ccc(F)cc3C2c2ccc(F)cc2)c(OC)c1 (stereo not given),110.0,104.0
Cc1cc(NC(=O)c2ccc3c(c2)OCCO3)cc(-c2nc3ccccc3o2)c1O,107.0,106.0
COc1ccc(CNC(=O)CC(C)CC2=NS(=O)(=O)c3ccccc3N2)cc1 (stereo not given),93.0,98.0
CCc1cnc2c(c1SCC(=O)c1ccccc1)c(=O)n(C)c(=O)n2C,102.0,103.0
Cc1ccc(Cl)cc1NC(=O)CN1C(=O)COc2ccc(S(=O)(=O)N3CCOCC3)cc21,104.0,112.0
O=C1Nc2c(c(=O)[nH]c(=O)n2-c2ccccc2)C1(NS(=O)(=O)c1ccc(Cl)cc1)C(F)(F)F (stereo not given),101.0,107.0
Cc1ccc(N(CC(=O)NC(C)c2ccccc2)S(=O)(=O)c2c(C)noc2C)cc1 (stereo not given),103.0,102.0
CCOc1ccc2oc(=O)cc(CN3CCN(c4ccc(OC)cc4)CC3)c2c1,114.0,107.0
CN(Cc1ccccc1)c1nc2c(S(=O)(=O)c3ccccc3)nnn2c2ccsc12,111.0,114.0
COc1ccc(-c2nc3sc(CCNC(=O)c4ccco4)c(C)n3n2)cc1,114.0,103.0
COc1ccc(CCNC(=O)Cn2c(=O)n(-c3ccc(OC)c(OC)c3)c(=O)c3ccccc32)cc1OC,105.0,103.0
CC(C)c1cnc2c(c1SCC(=O)Nc1cccc([N+](=O)[O-])c1)c(=O)n(C)c(=O)n2C,109.0,110.0
COc1ccc(NC(=O)C2CCN(c3ccc(Sc4ccc(C)cc4)nn3)CC2)c(OC)c1,113.0,110.0
COc1cccc(NC(=O)C2CCN(c3nn4cc(-c5ccc(F)cc5)nc4s3)CC2)c1,105.0,101.0

# This is a subset; the hit share may differ from the screen's.
